Methyltransferases – Primary Screen for Target Class Profiling of Small Molecule Inhibitors of Methyltransferases. purified enzyme, MTase-Glo SAH luminescence; stronger effect = lower value. calls only at 40 µM. 3.9% of 25,000 active. AID 1745853, 2022; active = -50% or lower on at least one of six enzymes; inconclusive = the cases between; inactive = as a rule above -30% on all six;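 further: enzymes were COMT GAMT GNMT HNMT NNMT and PNMT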
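Each enzyme was assayed with SAM and its substrate. SAH formation detected by MTase-Glo luminescence; single-point 40 uM screen[…].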
Calls only; i = inactive; ? = inconclusive; + = active, no number. On the % scale 0 is the no-effect control and ±100 the full control effect. These rows are one share of the data; rates above refer to the full screens.

canonical_smiles,Methyltransferases
O=C(c1ccc[nH]1)N1CCC(n2cc(-c3nc(C4CC4)no3)nn2)C1 (stereo not given),i
COc1cc(/C=C/C(=O)O[C@@H]2C[C@@](O)(C(=O)O)C[C@@H](O)[C@@H]2O)ccc1O,i
Nc1c(C(=O)Nc2ccc(F)cc2)sc2nc(-c3cccs3)cc(C(F)(F)F)c12,?
Cc1ccc(NC(=O)CCc2nnc3n(Cc4ccc(Cl)cc4)c(=O)c4ccccc4n23)cc1C,i
Nc1nonc1-c1nc2cnccc2n1C1CC1,?
Cc1ccc(CN2C(=O)c3ccc(-c4ccco4)n3CC2(C)C(=O)NC2CCCCCCC2)o1 (stereo not given),i
Cc1ccc(Cn2c(=O)c3ccccc3n3c(CCC(=O)N4CCN(c5cc(C)ccc5C)CC4)nnc23)cc1,i
CC(C)OCCCn1c(=O)c2ccccc2n2c(=O)n(CC(=O)NC3CCCCC3)nc12,i
Cc1cc2c(cc3n2CC(C)(C(=O)NC2CCCCCC2)N(Cc2ccc4c(c2)OCO4)C3=O)o1 (stereo not given),i
COc1cc2c(c(OC)c1CC=C(C)C)C[C@H](c1ccc(O)cc1O)CO2,i
CC(C)C[C@@H](NC(=O)[C@@H]1C[C@@H](NC(=O)c2cnccn2)CCN1C(=O)COCC(=O)O)C(N)=O,i
Cc1ccc(N2C(=O)c3cc4sccc4n3CC2(C)C(=O)NC2CCCCC2)c(C)c1 (stereo not given),i
Cc1ncc2n1C(=O)N(C1CCN(C(=O)NC3CCCC3)CC1)C2,i
CC1CCN(S(=O)(=O)c2cccc3c2C(=O)c2ccccc2C3=O)CC1,i
O=C(NCc1nnc2c(-c3nc(C4CC4)no3)cccn12)C1CC1,i
Cc1cccc(-c2nnc3n(Cc4ccc(F)cc4)c(=O)c4ccccc4n23)c1,i
CC(C)CCNC(=O)C1(C)Cn2nc(C(=O)NCCC3=CCCCC3)cc2C(=O)N1C (stereo not given),i
Cc1ccc2nc(NC(=O)CSc3nc4c(c(=O)n3-c3ccc(F)cc3)SCC4)sc2c1,i
NC(=O)C1=CN(C2OC(COP(=O)(O)OP(=O)(O)OC[C@H]3O[C@@H](n4cnc5c(N)ncnc54)[C@H](OP(=O)(O)O)[C@@H]3O)C(O)C2O)C=CC1 (stereo not given in full),i
CCn1ccc(C(=O)N2C[C@@H]3CCCN4CCC[C@@H]([C@H]34)[C@H]2CCCC(=O)NCC2CC2)n1,i
COc1ccc(-c2cc(=O)oc3cc(OCC(=O)Nc4ccc5c(c4)OCO5)ccc23)cc1,i
COc1ccccc1N1CCN(S(=O)(=O)c2cc3c(cc2Cl)n(C)c(=O)n3C)CC1,i
CC(C)Cn1nc(CNC(=O)c2ccccc2F)c2ccccc21,i
COC[C@H]1CCCN1Cc1cn(-c2ccccc2C)nc1-c1ccc(OC)c(F)c1,i
CCCn1c(=O)c2ccc(C(=O)NC(C)C)cc2n2c(=O)n(CC(=O)Nc3ccc(C)cc3Cl)nc12,i
COc1ccc2c(c1)C(C(=O)N(Cc1ccc(N(C)C)cc1)c1ccc(C(C)C)cc1)CCC2 (stereo not given),?
CC(C)CCNC(=O)Cn1ccc2cc(S(=O)(=O)N3CCCCC3)ccc21,i
CCc1ccc(S(=O)(=O)c2nnn3c2nc(NCc2ccccc2)c2ccccc23)cc1,i
Cc1ccc(Cl)cc1NC(=O)N1CCn2c(C)ccc2C1C(C)C (stereo not given),i
CC(C)NC(=O)N1CCNC[C@@H]1C(=O)N[C@@H](CC1CCCCC1)C(N)=O,i
CCc1ccc(S(=O)(=O)c2nnn3c2nc(N2CCC(C(N)=O)CC2)c2cc(Cl)ccc23)cc1,i
Cc1ccc(-c2[nH]ncc2CN2CC[C@@](C)(O)[C@H](N3CCCC3)C2)cc1,i
CCc1ccc(CNC(=O)C(C)n2ccc3cc(S(=O)(=O)N4CCCCC4)ccc32)cc1 (stereo not given),i
CCN1C(=O)N(Cc2cccc(OC)c2)C(=O)C12CCN(Cc1nc3ccccc3n1C)CC2,i
CC(C)CCNC(=O)C1(C)Cn2nc(C(=O)NCc3ccccc3F)cc2C(=O)N1C (stereo not given),i
CCCn1c(=O)c2ccc(C(=O)NC(C)C)cc2n2c(=O)n(Cc3ccc(F)cc3Cl)nc12,i
CC(C)CNC(=O)c1ccc2c(=O)n(CC(C)C)c3nn(Cc4c(F)cccc4Cl)c(=O)n3c2c1,i
COC(=O)c1cc(OC)c(O[C@@H]2O[C@@H](C)[C@H](O)[C@@H](O)[C@H]2O)c(OC)c1,i
Cc1ccc(CNC(=O)C2(C)Cn3nc(C(=O)NCCN(C)C)cc3C(=O)N2C)cc1 (stereo not given),i
CCC(C)NC(=O)c1ccc2c(=O)n(CCC(C)C)c3nn(Cc4ccc(C)cc4)c(=O)n3c2c1 (stereo not given),i
CCCNC(=O)N1CCCC2(CCC(=O)N(Cc3cnc(C)cn3)C2)C1 (stereo not given),i
O=C(CCn1ccc2cc(S(=O)(=O)N3CCCCC3)ccc21)NCCc1ccccc1,i
Cn1ccnc1CN1CCOC[C@H](Oc2ccc(C(F)(F)F)cc2)C1,i
CN(CCNC(=O)C1CCCCC(=O)N1Cc1ccccc1)C1CCCCC1 (stereo not given),i
CCN1C(=O)c2cc(C(=O)Nc3ccc(C(C)C)cc3)nn2CC1(C)C(=O)NC1CCCC1 (stereo not given),i
Cn1nc(C2CCCC2)cc1N[S+](=O)([O-])c1ccccc1,i
CC(C)OCCCn1c(=O)c2ccccc2n2c(=O)n(Cc3ccccc3)nc12,i
CC(=O)Nc1c2n(c3ccccc13)CC(C)(C(=O)NCCC(C)C)N(Cc1ccc(F)cc1)C2=O (stereo not given),i
CCC/C=C\C=C/CCc1cc(O)c([C@@H]2O[C@H](CO)[C@@H](O)[C@H](O)[C@H]2O)c(O)c1C(=O)OC,i
COc1ccc(CN2C(=O)c3cc(-c4ccco4)nn3CC2(C)C(=O)NC2CCCCCC2)cc1 (stereo not given),i
COCC(=O)N1CCC(Oc2ccccc2C(=O)N(C)Cc2ncccc2C)CC1,i
CCC[C@@]1(CCc2ccccc2)CC(O)=C([C@H](CC)c2cccc(NS(=O)(=O)c3ccc(C(F)(F)F)cn3)c2)C(=O)O1,?
CCCCN1C(=O)c2cc(C(=O)NCc3ccc(CC)cc3)nn2CC1(C)C(=O)NC1CCCC1 (stereo not given),i
N#Cc1ccc(CN2CCC3(CC(c4cccc(C(F)(F)F)c4)=NO3)C2)cc1 (stereo not given),i
COC1OC(=O)C2=C1C1(C)CCCC(C)(C)C1CC2O (stereo not given),i
Cc1ccc(NC(=O)Cn2nc3n(CC(C)C)c(=O)c4ccc(C(=O)NCC(C)C)cc4n3c2=O)cc1,i

The results go on.
canonical_smiles,Methyltransferases
OC[C@@H]1CNC[C@H]1C1CCN(C2CNC2)CC1,i
CCc1cccc(N2C(=O)CSc3c(c4ccccc4n3C)C2C(=O)NCCCOC(C)C)c1 (stereo not given),i
CCC(C)NC(=O)c1ccc2c(=O)n(C)c3nnc(SCC(=O)Nc4cccc(OC)c4)n3c2c1 (stereo not given),i
Clc1ccc(-c2nnn3c2nc(Cl)c2ccccc23)cc1,i
Cc1ccc(Cn2c(=O)c3ccccc3n3c(SCC(=O)Nc4ccc(F)cc4)nnc23)cc1,i
Cc1cccc(C)c1NC(=O)C(C)N (stereo not given),i
CCCn1c(=O)c2ccc(Cl)cc2n2c(=O)n(CC(=O)Nc3ccccc3OC)nc12,i
COc1cc(OC)cc(N2C(=O)c3cc(-c4cccs4)nn3CC2(C)C(=O)NC2CCCCC2)c1 (stereo not given),i
Cc1cc(C)c(NC(=O)Cn2c(=O)oc3cc(S(=O)(=O)N4CCCC4)ccc32)c(C)c1,i
C1CCc2nnnn2CC1,i
CN1C(=O)c2cc3ccccc3n2CC1(C)C(=O)NCC(=O)NCCc1cccs1 (stereo not given),i
C=CCn1c(=O)c2ccc(C(=O)NC(C)C)cc2n2c(=O)n(CC(=O)Nc3cc(C)cc(C)c3)nc12,i
COc1ccc2cc3n(c2c1)CC(C)(C(=O)NC1CCCC1)N(c1ccc(C)c(C)c1)C3=O (stereo not given),i
CCN1CCN(Cc2cc3ccc(C)cc3nc2-c2ccc(OC)c(OC)c2)CC1,i
O=C(NCCCN1CCc2ccccc2C1)C1CCc2ncc(-c3ccc(F)cc3)n2C1 (stereo not given),+
CC(=O)NCc1nnc2n1C(C(=O)NC1CCCCCC1)CC2 (stereo not given),i
COC(=O)c1cc2n(n1)CC(C)(C(=O)NC1CCCC1)N(c1cccc(Cl)c1C)C2=O (stereo not given),i
O=C(c1cccc2c1NCCC2)N1CCn2nc(C(O)C3CC3)cc2C1 (stereo not given),i
Cc1ccc(NC(=O)Cn2nc3n(C)c(=O)c4ccc(C(=O)NC5CCCCC5)cc4n3c2=O)cc1,i
CC(C)CCn1c(=O)c2ccc(C(=O)NC(C)C)cc2n2c(=O)n(CC(=O)NCc3ccccc3)nc12,i
CCCN1C(=O)c2c(C(=O)Nc3cccc(C)c3C)ncn2CC1(C)C(=O)NC1CCCC1 (stereo not given),i
O=c1n(CC2CC2)nc2n1CCN(S(=O)(=O)Cc1ccccc1)CC2,i
CCCCN1CCN(C(=O)C2(c3ccc(NS(C)(=O)=O)cc3)CCCCC2)CC1,i
CC1(C(=O)NC2CCCCCCC2)Cn2c(ccc2-c2ccco2)C(=O)N1Cc1ccco1 (stereo not given),i
C=C(C(=O)O)C1CC(OC(=O)CC(C)CC)C2(C)CCCC(=C)C2C1 (stereo not given),i
O=C1N[C@H](CC(=O)N2CCN(Cc3ccccc3Cl)CC2)C(=O)Nc2ccccc21,i
CC(C)(O)/C=C1/C(=O)C(C)(C)C(=O)C(C)(C)C1(O)O[C@@H]1O[C@H](COC(=O)c2cc(O)c(O)c(O)c2)[C@@H](O)[C@H](O)[C@H]1O (stereo not given in full),+
CC1(C(=O)NC2CCCCCCC2)Cn2c(cc3sccc32)C(=O)N1Cc1ccccc1F (stereo not given),i
COc1ccc(CN2C(=O)c3ccc(-c4ccccc4)n3CC2(C)C(=O)NC2CCCC2)cc1OC (stereo not given),i
CCC(CC)CC1(C(=O)Nc2ccccc2SC(=O)C(C)C)CCCCC1,i
CC[C@H]1OC(=O)[C@H](C)C(O[C@H]2C[C@@](C)(OC)[C@@H](O)[C@H](C)O2)[C@H](C)[C@@H](OC2O[C@H](C)C[C@H](N(C)C)[C@H]2O)[C@](C)(O)C[C@@H](C)CN(C)[C@H](C)[C@@H](O)[C@]1(C)O (stereo not given in full),i
CN(CCCN1C(=O)c2cc3occc3n2CC1(C)C(=O)NC1CCCCCC1)Cc1ccccc1 (stereo not given),i
CC(C)c1nccn1CCCNC(=O)c1ccc(-c2cccnc2)nc1,?
CC(=O)OC1C(=O)C2(C)C(O)CC3OCC3(OC(C)=O)C2C(OC(=O)c2ccccc2)C2(O)CC(OC(=O)C(O)C(NC(=O)c3ccccc3)c3ccccc3)C(C)=C1C2(C)C (stereo not given),?
Cn1cnc(C(=O)N2CCC3(CC2)CC(N(Cc2ccccc2)C2CC2)CCO3)c1 (stereo not given),i
COC1C(=O)N(C2CCN(C(=O)C3CC3)CC2)C12CCOCC2 (stereo not given),i
COc1cccc(NS(=O)(=O)c2ccc3c(c2)n(C)c(=O)n3C)c1,i
Cc1cc(CN2C[C@@H](CO)[C@H](NC(=O)C3CCC3)C2)n(C)n1,i
CCCC1c2cccn2CCN1C(=O)Nc1ccc(Br)cc1F (stereo not given),?
O=C(O)C(O[C@@H]1O[C@H](CO[C@@H]2O[C@H](CO)[C@@H](O)[C@H](O)[C@H]2O)[C@@H](O)[C@H](O)[C@H]1O)c1ccccc1 (stereo not given in full),i

Random excerpt: three records from the list
canonical_smiles,Methyltransferases
COC1C(=O)N(C2CCN(C(=O)C3CC3)CC2)C12CCOCC2 (stereo not given),i
CC(C)c1nccn1CCCNC(=O)c1ccc(-c2cccnc2)nc1,?
O=C(O)C(O[C@@H]1O[C@H](CO[C@@H]2O[C@H](CO)[C@@H](O)[C@H](O)[C@H]2O)[C@@H](O)[C@H](O)[C@H]1O)c1ccccc1 (stereo not given in full),i

Exported field by field: two of the compounds above
COC(=O)c1cc(OC)c(O[C@@H]2O[C@@H](C)[C@H](O)[C@@H](O)[C@H]2O)c(OC)c1
  Methyltransferases: i
Cc1ccc(N2C(=O)c3cc4sccc4n3CC2(C)C(=O)NC2CCCCC2)c(C)c1 (stereo not given)
  Methyltransferases: i

(continued)
canonical_smiles,Methyltransferases
COCCC(=O)N1CC(c2nc(CCOc3cccc(C)c3)no2)C1,i
Cc1ccc(CCNC(=O)CCCc2nnc3n4nc(-c5ccccc5)nc4c4ccccc4n23)cc1,i
CCOc1ccc(NS(=O)(=O)c2cc3c(cc2C)n(C)c(=O)n3C)cc1,i
CNCc1cc(-c2ccccc2F)n(S(=O)(=O)c2cccnc2)c1,i
N[C@@H]1c2cccnc2[C@H](OC(=O)N2CCC(n3c(=O)[nH]c4ncccc43)CC2)CC[C@H]1c1cccc(F)c1F,i
CCCCN1C(=O)c2cc(C(=O)Nc3cc(C)ccc3C)nn2CC1(C)C(=O)NC1CCCC1 (stereo not given),i
O=C(Nc1ccc(CN2CCOCC2)cc1)c1ccc(-c2cccc(Cl)c2)o1,i
CC1=NOC2(CCN(Cc3ccc(Cl)cc3)CC2)C1,i
COc1ccccc1CN1C(=O)c2nc3ccccc3n2CC1(C)C(=O)NC1CCCCC1C (stereo not given),i
CCOc1ccccc1CNC(=O)CCn1ccc2cc(S(=O)(=O)N3CCC(C)CC3)ccc21,i

Compound activity (PubChem)
